# BJeLR lethal: MLPCN primary cell-based screen for lethality selective to Ras in HRASV12 cells; 0.17% of 300,000 active; BJeLR (HRASV12) viability, CellTiter-Glo ATP luminescence, 48 h; reference of the scale not given here; inhibition, % (no concentration beside the values);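 active = replicate mean above 50%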;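 note: 50 nL library stock added to about 25 µL; numbers are from one replicate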
# Sa ugtP lethal: growth inhibition of ugtP-null S. aureus, primary screen, RN4220 ugtP deletion, OD600; 16 h; some inactives read as strong as hits; 0.54% of 330,000 active; growth inhibition, % (no concentration beside the values);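 active = z-score under -3 and OD600 up to 0.15 on both plates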;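 note: plate controls were untreated wells for no effect and antibiotic for full effect; wells of about 80 µL received 100 nL stock; the first replicate is given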
# Mtb hypoxia rep: PubChem AID 1159583. M. tuberculosis hypoxia-regulated fluorescent reporter, fluorescence. fluorescence inhibition, % (test concentration not listed). 0.1% of 300,000 active;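 active = 35 to 45% if threefold the growth effect, above 45% if 1.5-fold the growth effect; inactive = the rest, general growth blockers included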;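 note: wells of about 50 µL received 100 nL stock; 0% = vehicle wells and 100% = reference inhibitor wells; whole bacteria with a GFP reporter of the hypoxia response; strong numbers were not always called active; many hits fall short of the cut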
# PrP UTR inh: inhibition of PrP 5' UTR reporter expression; cell-based PrP 5' UTR mRNA reporter, plate reader; inhibition, % (test concentration not listed); 0.35% of 340,000 active; AID 488862, 2010;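 active = every replicate at 50% or more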;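 note: 0 = median of the neutral control wells; tested in H4 reporter cells; numbers are from one replicate; inactives centre near -14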
# Sa RN4220 lethal: growth inhibition of S. aureus RN4220, primary screen, OD600; AID 1259311, 2017; 0.33% of 330,000 active; inhibition, % (concentration not given with the values); 16 h;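 active = z-score of -3 or lower and OD600 up to 0.18 on both plates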;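 note: plate controls were untreated cells for no effect and reference antibiotic for full effect; stock transfer was 100 nL into about 80 µL; one replicate is shown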
# Bead autofluor: counter-screen for toxin protease inhibitors: compound fluorescence. 3.1% of 360,000 active. AID 624483. fluorescence intensity (no concentration beside the values). compound autofluorescence counterscreen, microsphere flow cytometry; active compounds read high;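 active = at least 3 SD above the mean of all compounds, about 16000 in these data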;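 note: 100 nL of 1 mM stock went into each well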
# Mtb hypoxia rep growth: further read-out of Mtb hypoxia rep, marked with its call; growth inhibition, %; measured here: M. tuberculosis growth (absorbance);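 0% = vehicle and 100% = reference antibiotic; read after six days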
# Starred values were filed as active, the others as inactive; nt = no result given.
SMILES,BJeLR lethal,Sa ugtP lethal,Mtb hypoxia rep,Mtb hypoxia rep growth,PrP UTR inh,Sa RN4220 lethal,Bead autofluor
Cc1cccc(-n2ncc3c2CCCC3NC(=O)C2CCOCC2)c1C (centres undefined),-1,4,10,3,-18,2.4,5373
CCNC(=S)N/N=C/c1ccco1,-2,nt,nt,nt,-14,nt,4306
Cc1cccc(NCc2ccc(O)c3ncccc23)c1,4,-2,-1,4,-3,3.2,2403
COc1cc(OC)c(/C=N/n2c(C3CCCCC3)n[nH]c2=S)c(OC)c1,6,nt,nt,nt,-5,nt,3261
CCOc1ccccc1NC(=O)CSc1nc2c(c(=O)n1C)SC(C)C2 (centres undefined),2,10,5,-1,-10,3.1,5070
O=C(CNC(=O)c1cccs1)N/N=C/c1ccco1,1,nt,nt,nt,-21,nt,4191
COc1cc2c(cc1OC)CN(C(=O)C1CCCN1S(=O)(=O)c1ccc(F)cc1)CC2 (centres undefined),10,13,-6,0,4,-1.3,3697
COc1ccc(C(=O)NC(=S)NC(C)c2ccccc2)cc1 (centres undefined),-7,-1,12,5,-35,0.2,3421
O=C(c1ccc([N+](=O)[O-])o1)N1CCN(c2nc3c(F)cc(F)cc3s2)CC1,-2,-3,nt,nt,-8,13,6695
CC(C)(C)CN1C(=O)C(=O)NC[C@@H]1Cc1ccc(O)cc1,-13,nt,nt,nt,-15,nt,4016
O=C(NNS(=O)(=O)c1ccc([N+](=O)[O-])cc1)c1ccncc1,-18,18,-3,-4,-6,8.8,3065
O=C(N/N=C/c1ccncc1)c1nc(-c2ccccc2)n2c1CCCCC2,-2,nt,nt,nt,-27,nt,5070
CNCC(=O)c1ccccc1,1,-3,nt,nt,nt,2.6,3841
CCOC(=O)N1CCN(C(=O)Cn2ncc3ccccc32)CC1,0,3,nt,nt,-26,-1.5,5175
Cc1ccc(S(=O)(=O)Oc2ccccc2C=C2C(=O)N(C)C(=O)N(C)C2=O)cc1,-10,10,11,-2,-20,16,4634
O=C(O)c1cc([N+](=O)[O-])c(NCc2cccnc2)c([N+](=O)[O-])c1,3,-1,-2,-5,-17,1.3,2166
CN(Cc1ccccc1)c1ccc(C(CC(N)=O)NC(=O)Cc2ccc(Br)cc2)cc1[N+](=O)[O-] (centres undefined),-2,-8,5,10,-21,10,3404
COc1ccc(NC(=O)c2nc[nH]c2C(=O)N[C@@H](C)c2ccccc2)cc1,-1,nt,nt,nt,-12,nt,4332
COc1ccc(CN2CCSc3sccc3C2=O)cc1,-2,13,20,8,-18,-0.4,3947
O=C(NCc1ccc(Cl)cc1)C1=Cc2cc(Cl)ccc2OC1,2,-15,-2,8,-7,-13,21246*

# An excerpt of these results, with two lines to a compound.
# Every second line gives: BJeLR lethal	Sa ugtP lethal	Mtb hypoxia rep	Mtb hypoxia rep growth	PrP UTR inh	Sa RN4220 lethal	Bead autofluor
> COc1ccc(C(=O)NC(=S)NC(C)c2ccccc2)cc1 (centres undefined)
    -7	-1	12	5	-35	0.2	3421
> O=C(NCc1ccc(Cl)cc1)C1=Cc2cc(Cl)ccc2OC1
    2	-15	-2	8	-7	-13	21246*
> CNCC(=O)c1ccccc1
    1	-3	nt	nt	nt	2.6	3841
> O=C(CNC(=O)c1cccs1)N/N=C/c1ccco1
    1	nt	nt	nt	-21	nt	4191

# Next part
SMILES,BJeLR lethal,Sa ugtP lethal,Mtb hypoxia rep,Mtb hypoxia rep growth,PrP UTR inh,Sa RN4220 lethal,Bead autofluor
CC(=O)Nc1ccc(C(=O)CSc2nc3ccccc3n2CC(=O)N2CCCC2)cc1,5,-19,5,10,-5,10,16357*
COc1ccc(C)cc1NC(=O)NCc1ccccc1F,2,1,-3,-1,-21,5.0,4072
CCC(=O)c1ccccc1OCC(=O)Nc1c(C)cccc1C,-2,18,1,3,-4,7.4,2059
O=c1c(/C=C(\O)c2ccccc2)nc2ccccc2n1-c1ccccc1,-8,0,nt,nt,-23,0.6,17938*
NS(=O)(=O)c1ccc(CCNC(=O)CSc2nc3ccccc3c(=O)n2CCC(=O)N2CCCCC2)cc1,1,5,6,6,-18,3.2,5616
O=C(O)CSc1nnc(-c2ccc(Cl)cc2Cl)n1-c1ccc(Br)cc1,6,nt,nt,nt,-17,nt,3768
CCOC(=O)N1CCN(c2ccc(C(=O)c3cccc(F)c3)cc2)CC1,-3,13,9,8,-58,3.6,6822
Cc1ccc(CN2CCN(N=Cc3cc(Br)ccc3O)CC2)cc1,nt,27,-1,3,nt,-5.3,nt
Cc1ccc(NC(=O)C=NOCC(=O)Nc2cc(C)cc(C)c2)cc1,nt,-6,1,2,-22,3.2,5329
CCN(CC)c1ccc(C=NNc2nc(C)cc(=O)[nH]2)cc1,nt,-4,2,2,nt,3.9,nt
O=C(COC(=O)c1ccc(O)cc1)NCCC1=CCCCC1,5,4,5,5,-5,5.2,7978
CCCCCCn1cnc2c(c1=O)c1nc3ccccc3nc1n2Cc1cccs1,6,3,-8,5,-11,4.5,3219
COc1ccc2nc3cccc(OC)c3nc2c1,2,8,11,20,-41,11,3991
CCCc1nc(SCC(=O)Nc2cc(Cl)ccc2OC)c2c(=O)n(C)c(=O)n(C)c2n1,0,-8,10,1,nt,-12,nt
Cc1ccc(S(=O)(=O)Nc2c(C)n(C)n(-c3ccccc3)c2=O)cc1C(=O)NCc1ccccn1,11,3,nt,nt,-19,-1.8,5062
CCOCC(=O)Nc1cccc(C(=O)OCC)c1,3,-6,nt,nt,-12,1.0,4882
Cc1ccc(C(=O)Nc2cccc(S(=O)(=O)N(C)c3ccccc3)c2)o1,nt,-2,15,6,-18,8.9,4053
COc1cccc(-c2nn(-c3ccccc3)cc2CN(C)C(C)c2ccon2)c1 (centres undefined),-5,-1,-1,-5,-12,-0.5,5103
O=C(CCN1CCOCC1)Nc1ccc2c(c1)CCC2,-5,5,nt,nt,-14,0.9,4708
CSc1ccc(S(=O)(=O)NCC(=O)OC(C)C(=O)NCc2ccccc2)cc1[N+](=O)[O-] (centres undefined),5,nt,nt,nt,-7,nt,5241
NNC(=O)CCc1nc2ccccc2[nH]1,-10,0,-9,0,nt,1.8,nt
COc1ccc(N2C(=O)C(Cl)=C(N3CCCC3)C2=O)cc1,-12,4,7,5,13,3.6,4463
CCC1(Cc2ccccc2)NC(=O)c2ccccc2O1 (centres undefined),3,-11,-3,0,-28,5.8,3745
COc1cc(S(=O)(=O)N(C)C2CCCCC2)c(C)cc1C,3,7,20,8,-20,7.6,3924
O=C1CC(c2cccnc2)c2cc3c(cc2N1)OCO3 (centres undefined),9,0,8,9,-23,-2.7,6198
Cc1ccc(N(C(=O)CNC(=O)c2ccco2)C(C(=O)NC2CCCC2)c2ccncc2)cc1F (centres undefined),-3,3,4,-3,-17,3.9,5854
Cc1ccccc1NC(=O)c1cnc2ccccn2c1=O,2,-1,4,9,nt,5.5,11224
Cn1ncc(Br)c1C(=O)N1CCOCC1,12,10,7,5,-15,7.9,6869
Cc1nc2ccc(NC(=O)c3oc4ccc(F)cc4c3C)cc2s1,nt,-1,1,2,1,2.6,4373
Cc1cc(C)cc(N(CC(=O)Nc2ccccc2)C2=NC3CS(=O)(=O)CC3S2)c1 (centres undefined),-20,6,-16,7,5,13,4146
Cc1[nH]cnc1CSCc1ccc(F)cc1,3,6,6,8,-14,0.9,7140
CCOC(=O)Cc1nc(-c2ccc(Cl)cc2)n[nH]1,1,6,-2,3,-7,4.0,4678
O=C(CSc1nnc(NC2CCCCC2)s1)NCc1ccco1,2,6,2,9,-17,5.5,4100
N#CCn1cc(/C=N/NC(=O)c2cc3c(ccc4ccccc43)o2)c2ccccc21,9,nt,nt,nt,-22,nt,5497
CCOC1OC(=O)C(Cl)=C1Nc1ccccc1C (centres undefined),6,-2,nt,nt,6,-2.1,2542
O=C(NCc1ccccc1)C1=CC(c2ccc(C(F)(F)F)cc2)CC(OCCCCO)O1 (centres undefined),nt,8,13,7,nt,0.4,nt
CCCN1C2=NS(=O)(=O)CCN2c2ccccc21,-3,6,nt,nt,4,2.7,2741
CCN=C1NN=C(c2ccc(C)cc2)CS1,-3,-8,3,10,-14,-4.5,8188
O=[N+]([O-])c1cccc(-c2nc(NCc3ccccc3)c3ccccc3n2)c1,-3,-6,-7,4,-25,-14,2443
COc1ccc(NC(=S)Nc2ccc(OC)cc2OC)c(OC)c1,-21,4,12,8,-18,-0.5,2024
COCC(C)NC(=O)c1ccc(-n2nc(C(F)(F)F)cc2-c2cccs2)cc1 (centres undefined),-21,-5,8,5,-24,3.0,9259
COc1ccccc1C(=O)Nc1ccccn1,nt,6,-3,1,2,2.2,9646
CSc1ncccc1C(=O)OCc1ccccc1Cl,nt,33,1,0,-27,0.4,3552
O=C(O)c1ccc(/C=N/Nc2nc(N3CCCCC3)nc(N3CCCCC3)n2)cc1,20,nt,nt,nt,-8,nt,4344
COc1ccc2nc(SCC(=O)Nc3ccc4sc(C)nc4c3)c(C#N)cc2c1,-9,-9,-3,-1,-66,4.3,10463
CCCCn1c(=O)[nH]c(=O)c2c1nc(-c1ccc(-c3ccccc3Br)o1)n2CCOC,-5,-15,-3,6,-9,2.0,2530
CN1CCN(/N=C/c2ccc(-c3ccc([N+](=O)[O-])cc3)o2)CC1,5,nt,nt,nt,-30,nt,5444
CCC(C)N=Cc1c(O)n(-c2ccccc2)c(=O)[nH]c1=O (centres undefined),-8,8,15,-2,-18,2.6,15647
CCn1cc(CN2CCCC(CO)(Cc3ccc(F)cc3)C2)c2ccccc21 (centres undefined),2,-9,nt,nt,3,-3.1,3715
Cc1onc(-c2ccccc2)c1C(=O)N/N=C/c1ccc([N+](=O)[O-])s1,10,nt,nt,nt,-6,nt,2138
CC(C)CCNC(=O)Cn1c(=O)oc2cc(S(=O)(=O)N3CC(C)CC(C)C3)ccc21 (centres undefined),3,15,13,18,-27,4.6,6473
Cc1cc(C)c(S(=O)(=O)N2CCOC2CNC(=O)C(=O)NCc2ccncc2)c(C)c1 (centres undefined),6,-8,-3,5,2,-0.3,5464
Cc1noc(C)c1CCC(=O)Nc1c(C(C)C)cccc1C(C)C,nt,-5,7,7,-24,1.7,3329
COc1ccccc1NC(=O)CN1CCN(CC(=O)Nc2ccc(F)cc2)CC1,nt,4,nt,nt,-23,-2.1,2754
COc1cccc(C(=O)N2CCN(Cc3ccc4c(c3)OCO4)CC2)c1OC,1,14,nt,nt,-13,1.3,3467
COC(=O)CCC(=O)COc1ccc(OC)cc1C#N,-4,1,nt,nt,-71,4.2,6661
C=CCN(C(=O)c1ccc(Cl)cc1)c1ccccc1C(=O)NCC(=O)O,6,1,8,7,-22,-2.1,3955
N=c1c2c(n(Cc3ccc(F)cc3)c3c1CCC3)CCCC2,5,1,12,10,-29,-0.8,4615
CN(C)CCCNC(=O)c1ccc2[nH]c3ccccc3c2c1,4,1,0,1,-16,0.1,9665
CSCCC(=O)N(C)CC1CCCN(CCc2cccc(C(F)(F)F)c2)C1 (centres undefined),2,2,12,7,-39,3.4,4047

# 4 entries from above, with tabs.
Molecule	BJeLR lethal	Sa ugtP lethal	Mtb hypoxia rep	Mtb hypoxia rep growth	PrP UTR inh	Sa RN4220 lethal	Bead autofluor
COC(=O)CCC(=O)COc1ccc(OC)cc1C#N	-4	1	nt	nt	-71	4.2	6661
C=CCN(C(=O)c1ccc(Cl)cc1)c1ccccc1C(=O)NCC(=O)O	6	1	8	7	-22	-2.1	3955
N=c1c2c(n(Cc3ccc(F)cc3)c3c1CCC3)CCCC2	5	1	12	10	-29	-0.8	4615
CN(C)CCCNC(=O)c1ccc2[nH]c3ccccc3c2c1	4	1	0	1	-16	0.1	9665
